# Rango-impB inh – qHTS Assay for Inhibitors of Rango (Ran-regulated importin-beta cargo) - Importin beta complex formation | 340,000 tested, 0.031% active | Rango CFP/YFP FRET sensor + importin beta, 45 min | Importin subunit beta-1 (Homo sapiens), Q14974 | Potency, µM (titrated, usually from 92.2 µM), inactives show top-dose inhibition of complex formation | AID 540263, 2011; active = rising FRET ratio curve, often small or poorly fitted; inconclusive = mostly compound fluorescence or quenching in the first reads; inactive = flat curves in all reads;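 also: potency is read from the fitted curve at half-maximal effect; 0% = DMSO wells and 100% = buffer wells lacking importin beta; nearly all actives have a fitted effect of over 15% in size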
# Target sequence (Q14974 whole entry, looked up): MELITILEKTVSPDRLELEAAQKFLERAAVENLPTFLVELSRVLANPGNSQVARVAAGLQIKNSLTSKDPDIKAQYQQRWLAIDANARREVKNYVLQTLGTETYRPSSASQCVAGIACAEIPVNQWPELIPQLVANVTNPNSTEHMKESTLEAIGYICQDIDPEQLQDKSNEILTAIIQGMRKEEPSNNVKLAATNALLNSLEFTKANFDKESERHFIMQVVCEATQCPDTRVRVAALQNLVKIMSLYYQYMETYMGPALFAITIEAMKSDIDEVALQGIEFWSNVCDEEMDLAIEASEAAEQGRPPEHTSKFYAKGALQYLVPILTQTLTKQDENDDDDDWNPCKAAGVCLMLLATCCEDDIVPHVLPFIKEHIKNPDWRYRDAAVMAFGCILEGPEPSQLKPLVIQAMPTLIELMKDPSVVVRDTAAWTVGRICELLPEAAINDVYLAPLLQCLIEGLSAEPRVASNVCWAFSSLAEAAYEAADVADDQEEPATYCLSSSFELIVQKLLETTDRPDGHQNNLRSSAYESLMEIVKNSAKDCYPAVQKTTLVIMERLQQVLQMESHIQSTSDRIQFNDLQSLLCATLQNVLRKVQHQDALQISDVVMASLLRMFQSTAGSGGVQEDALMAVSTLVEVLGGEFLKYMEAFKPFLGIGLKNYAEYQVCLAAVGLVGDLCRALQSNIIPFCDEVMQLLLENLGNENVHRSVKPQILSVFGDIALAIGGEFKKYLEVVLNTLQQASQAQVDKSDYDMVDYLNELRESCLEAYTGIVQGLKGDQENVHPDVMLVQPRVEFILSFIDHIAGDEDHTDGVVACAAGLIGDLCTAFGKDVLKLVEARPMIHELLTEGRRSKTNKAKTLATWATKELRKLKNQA
#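 FRET biosensor Rango (snurportin 1 IBB between N-terminal EYFP and C-terminal Cerulean), 50 nM in PBS/1 mM DTT/0.02% Tween-20/0.1% BSA, preincubated 5 min RT with compound; 0.125 microM importin beta added, 45 min RT, CFP/YFP FRET ratio read.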
# Rango release inh – qHTS Assay for Inhibitors of RanGTP induced Rango (Ran-regulated importin-beta cargo) - Importin beta complex dissociation. AID 540253, 2011. Snurportin-1 (Homo sapiens) + GTP-binding nuclear protein Ran (Homo sapiens) + Importin …. Potency, µM (series often up to 46.1 µM), inactives show top-dose activity change, negative = inhibition. Biochemical FRET Rango-importin beta, RanGTP-induced dissociation. 340,000 tested, 0.071% active; active means falling FRET ratio curve, often poorly fitted, with flat reads before Ran was added; inconclusive means other falling curves, or compound fluorescence or quenching; inactive means flat or rising ratio curve;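 also: potency is read from the fitted curve at half-maximal effect; % of control where 0% means no effect; nearly all actives have a fitted effect of over 45% in size; -100% = wells without RanGTP and RCC1; the record marks most hits as doubtful in a second field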
#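 Rango (0.1 uM)–importin beta (0.25 uM) complex; RanGTP-RCC1 trigger; 45 min RT; CFP/YFP FRET read.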
# miR-21 FLuc – qHTS Assay for Modulators of miRNAs and/orActivators of miR-21; HeLa miR-21 FLuc reporter, luciferase, 48 h; Potency, µM (top dose mostly 38.3 µM), for inactives: top-dose reporter change, positive = more light; 340,000 tested, under 10 active; active = well fitted rising curve with a large enough effect; inconclusive = small, poorly fitted or top-dose-only effect; inactive = no such curve, though single readings can be large or run the other way;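 also: % of control where 0% means no effect; miR-21 action dims this reporter so a rising signal means less miR-21 action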
#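 HeLa cells stably expressing CMV-driven firefly luciferase with a downstream miR-21 binding sequence, endogenously expressing miR-21, were treated with titrations (up to about 40uM final) for 48 hours at 37 degree Celsius. Luciferase luminescence was read after lysis.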
# GLA inh pH 4.5 – qHTS Assay for Inhibitors of Human alpha-Galactosidase at pH 4.5; Alpha-galactosidase A (Homo sapiens), P06280; purified enzyme, 4-MU-alpha-Gal fluorescence, pH 4.5; activity change, negative = inhibition, % at 105 µM; 230,000 tested, under 10 active; inconclusive = small, poorly fitted or top-dose-only inhibition, or a rising curve; inactive = flat fitted curve, though single readings scatter; no compound was filed as active;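 also: 0% = full activity with enzyme and -100% = basal without enzyme; dose as in the result columns while the protocol names 77 µM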
# * = called active by the depositor; ? = inconclusive; / = not tested or not shown; & = joins results of further samples.
SMILES,Rango-impB inh,Rango release inh,miR-21 FLuc,GLA inh pH 4.5
COc1ccc(C(C)=O)cc1COC(=O)c1cc(C)oc1C,-1.0%,2%,-15%,1
O=C(Nc1ccc2nc3n(c(=O)c2c1)CCCCC3)c1ccccc1Cl,-0.3%,4%,-51%,-15
CC(=O)Nc1ccc(C(=O)OCC(=O)N2CCCC2=O)cc1,-1.9%,-2%,/,/
Cc1ccc(CNc2nc3c([nH]2)c(=O)n(C)c(=O)n3C)cc1,3.8%,5%,-1%,4
CCC(C)CCN1C(N(C)C)=NC[C@@H]1Cc1ccccc1 (stereo partly specified),-2.2%,-10%,/,/
O=C(Nc1ccc(S(=O)(=O)N2CCOCC2)cc1)C1CC(=O)N(c2ccc(F)cc2)C1 (stereo unspecified),-0.3%,-8%,0%,/
O=C(CSc1nc(-c2ccccc2)nc2c1CCCC2)N1CCOCC1,1.7%,-4%,-2%,0
CC(=O)n1cc([C@@H]2C=C(C(=O)N3CCN(Cc4ccc5c(c4)OCO5)CC3)O[C@H](OCCCCO)C2)c2ccccc21,-1.8%,12%,9%,1
COc1ccccc1N(CN1CCCC1=O)C(=O)COc1ccccc1,2.2%,3%,-1%,6
CCN1CCc2c(OCc3ccc(C)cc3)cccc2C1=O,0.0%,24%,-5%,2
O=C(Nc1ccc(N2CCCC2)c(Cl)c1)c1cccnc1,0.5%,-6%,-21%,-3
COc1ccc(CNC2CCCc3ccccc32)cc1OC (stereo unspecified),-1.6%,11%,-4%,-1
O=C(NCc1ccc2c(c1)OCO2)C1CCN(S(=O)(=O)c2ccc(F)cc2)CC1,2.3%,22%,1%,/
COc1ccc(N2CCN(CC(=O)Nc3nc(C)cs3)CC2)cc1,0.0%,3%,0%,/
COc1ccc(OCCNC(=O)C(c2ccccc2)c2ccccc2)cc1,5.6%,8%,-1%,-10
CCCCN(C(=O)c1ccc(COc2ccccc2)o1)c1c(N)n(CC(C)C)c(=O)[nH]c1=O,8.2%,-11%,/,/
COc1ccc(C)cc1-n1nnnc1SCC(=O)NC(=O)NCc1ccco1,-1.5%,18%,-1%,-3
CCCOP(=O)(OCCC)C(NC(=O)C(C)(C)C)c1ccccc1 (stereo unspecified),-1.4%,12%,-4%,-1
COc1ccc(N2CCN(C(=O)CCN3C(=O)C4C5C=CC(C5)C4C3=O)CC2)cc1 (stereo unspecified),-3.3%,-19%,0%,-12
CCC(=O)Nc1c(-c2ccc(C)cc2)c(=O)c2ccccc2n1C,-1.1%,8%,4%,/
CCCC(=O)N(CCN1CCOCC1)c1nc2c(C)ccc(C)c2s1,0.3%,-2%,-1%,/
Cc1cccc(Oc2cnn(C(C)(C)C)c(=O)c2Cl)c1,-0.9%,-1%,-3%,-8
COc1cccc(OC)c1OCCNCCO,0.9%,-8%,-2%,3
CCOC(=O)N1CCN(c2c(NCCCOC(C)C)c(=O)c2=O)CC1,-1.9%,-18%,0%,14
CCCN1CCC(NC(=S)Nc2ccc(S(N)(=O)=O)cc2)CC1,-1.2%,3%,4%,-2
Cc1ccc(NC(=O)COC(=O)C2CC2)cc1Cl,1.6%,12%,/,/
Cc1ccc(Cc2cnc(NC(=O)/C(C#N)=C/c3ccc(-c4ccccc4[N+](=O)[O-])o3)s2)cc1,-5.0%,-8%,-1%,-2
Cc1ccc(C)c(NC(=O)C2CC(O)CN2C(=O)OCc2ccccc2)c1 (stereo unspecified),-4.2%,7%,0%,3
Cc1ccc(S(=O)(=O)N2CCN(c3ncnc4sccc34)CC2)cc1,3.0%,-13%,16%,/
OC1(Cc2ccccc2)CCNCC1,-1.1%,15%,3%&-4%,1&6
COc1ccc(N2C(=O)C3[C@@H](C2=O)C2(Cl)C(Cl)=C(Cl)C3(Cl)C2(OC)OC)cc1 (stereo partly specified),2.8%,-3%,2%,-2
COc1ccc(/C=N\NC(=O)CNC(=O)C2COc3ccccc3O2)cc1[N+](=O)[O-] (stereo unspecified),0.3%,1%,-3%,/
CC1(c2ccc3noc(-c4cccc(F)c4)c3c2)OCCO1,-1.0%,29%,4%,-4
Cc1cccc(N(CC(=O)NC2CCCCC2)C(=O)CCC(=O)Nc2nccs2)c1,-4.5%,1%,-1%,/
COc1ccc(S(=O)(=O)N2CCOC2CNC(=O)C(=O)NCCc2ccc(S(N)(=O)=O)cc2)cc1 (stereo unspecified),0.1%,-2%,4%,/
COC(=O)c1ccc2c(c1)C(=O)/C(=C/c1ccc(C)cc1)O2,-4.3%,-6%,-12%,-10
CC1CCN(C(=O)Cn2cc(S(=O)(=O)CC(=O)N3CCOCC3)c3ccccc32)CC1,6.6%,-8%,/,/
Cc1ccc(C)c(-c2cc(C(=O)NN3CCOCC3)c3ccccc3n2)c1,0.6%,-17%,-2%,0
CCCCN1CC(COCc2ccccc2)Oc2cc(Br)ccc2S1(=O)=O (stereo unspecified),-3.1%,12%,/,/
COc1cc(OC)nc(Oc2ccccc2C(=O)Oc2cccc(C)c2)n1,0.5%,-19%,1%,-2
COc1cc([N+](=O)[O-])cc(/C=N/NC(=O)c2ccc(C)nc2)c1O,-0.8%,-11%,-7%,-3
O=S(=O)(Nc1ccncc1Cl)c1cccc(Cl)c1Cl,3.3%,?,0%,-8
CCCc1ccc2oc(C(=O)N3CCC(O)CC3)c(C)c2c1,0.1%,2%,-52%,/
COc1cccc(C(=O)OCCN2CCOCC2)c1,-2.2%,-10%,1%,-3
CC(O)[C@H]1CNC(=O)C(=O)N1CCc1cc(C(F)(F)F)cc(C(F)(F)F)c1 (stereo partly specified),4.2%,-8%,-1%,0
O=C(CCCCCNc1nc(=S)[nH]c2ccccc12)N1CCN(c2ccccn2)CC1,/,/,9%,-11
Cc1nc(COc2ccccc2Cl)sc1-c1ccnc(N)n1,4.7%,-9%,-39%,1
CC(C)CNC(=O)c1oc2ccccc2c1COc1ccccc1,-2.8%,0%,-7%,-2
Cc1cc(C)c(S(=O)(=O)N2CCCOC2CNC(=O)C(=O)NCc2cccs2)c(C)c1 (stereo unspecified),-0.9%,1%,-4%,0
Cc1ccc(NC(=S)NC2CCN(Cc3ccccc3)CC2)cc1,0.4%,-11%,-1%,-14
COC(=O)COc1cc(=O)oc2ccc(NS(=O)(=O)c3ccccc3)cc12,?,-16%,2%,/
Cc1ccc(CNC(=O)C2CCC(=O)N(CCc3cccc(F)c3)C2)cc1 (stereo unspecified),-3.7%,-5%,2%,/
O=C1c2ccsc2SCCN1Cc1c(Cl)cccc1Cl,2.2%,2%,0%,-1
CCOC(=O)c1sc(NC(=O)C2CSC3(C)CCC(=O)N23)nc1C (stereo unspecified),1.9%,25%,/,/
Cc1ccc(NC(=O)c2ccc3c(c2)OCCO3)nc1,-5.7%,4%,/,/
Cc1onc(-c2ccccc2)c1CNS(=O)(=O)c1ccc(F)cc1F,0.6%,-17%,-2%,2
CCNC(=O)CC1SC(=Nc2ccc(C)cc2)NC1=O (stereo unspecified),-1.9%,5%,-7%,-1
COc1ccc(CNC(=O)[C@@H]2CC=C[C@@H]3CCN(Cc4ccc(Cl)c(Cl)c4)C(=O)[C@@H]32)cc1,-2.6%,2%,/,/
Cc1cccc(C)c1NC(=O)c1cccc(COc2cc(Cl)ccc2Cl)c1,-6.4%,2%,-41%,-7
Cc1ccccc1OCCn1cc(/C=C(\C#N)C(=O)NCc2ccco2)c2ccccc21,7.4%,?,-1%,2
# (continued)
SMILES,Rango-impB inh,Rango release inh,miR-21 FLuc,GLA inh pH 4.5
COc1cc(N)c(Cl)cc1C(=O)OCC(=O)N1c2ccccc2NC(=O)C1(C)C,0.2%,-2%,/,/
O=C(CSc1nnc(-c2cccnc2)n1-c1ccccc1)N1CCN(c2ccc(F)cc2)CC1,0.5%,-9%,12%,1
Cc1ccc(NC(=O)CCC(=O)OC(C(=O)c2ccc(C)c(C)c2)c2ccccc2)c(C)c1 (stereo unspecified),-4.3%,1%,-9%,-20
Cc1nc2ccc(N)nc2nc1C,4.9%,-11%,/,/
Cc1ccc(C)c(OCCn2c(=O)c3c(ncn3C3CCCC3)n(Cc3ccccc3)c2=O)c1,-4.1%,5%,-6%,3
CCOc1ccc(-c2nnc3ccc(SCC(=O)Nc4cc(C)on4)nn23)cc1,-3.0%,1%,-3%,1
CCC(C)(C)c1ccc(OCCCC[n+]2cccc(C)c2)c(C(C)(C)CC)c1,17%,-1%,?,?
Cc1cccc(-c2nnc(SCc3ccccc3)o2)c1,-1.7%,-2%,-50%,-7
O=C(Nc1cccc(Br)c1)c1cccc(OC(=S)N2CCOCC2)c1,1.7%,9%,12%,/
CCOC(=O)N1CCN(C(=O)CN(c2cccc(C)c2)S(=O)(=O)c2ccccc2)CC1,3.2%,-5%,0%,-1
COC(=O)[C@@H](Cc1c[nH]c2ccccc12)NC(=O)CNC(=O)c1ccccc1OC,-0.3%,10%,0%,/
O=C(O)c1cc(C(F)(F)F)nc2ccccc12,-0.3%,1%,-2%,1&7
CCOC1OC(=O)C(Cl)=C1Nc1cc(C)ccc1C (stereo unspecified),-1.8%,22%,-7%,3
COC(=O)c1ccccc1NC(=O)C(=O)NCC1CCCO1 (stereo unspecified),-1.1%,0%,-19%,0
COc1ccc(Br)cc1CN(C)CC(=O)Nc1cccc(S(N)(=O)=O)c1,0.1%,1%,-5%,-2
O=C1C(=O)N(CCO)C(c2ccc(Br)cc2)/C1=C(\O)c1ccccc1 (stereo unspecified),-1.8%,-2%,0%,/
O=C(O)CC1(CC(=O)Nc2ccc3ccccc3n2)CCCCC1,-5.6%,28%,-1%,-7
O=C(O)C1Cc2c([nH]c3ccccc23)C(c2ccc3c(c2)OCO3)N1 (stereo unspecified),?,?,-7%,2
CCOC(=O)CN1C(=O)C(Sc2n[nH]c(-c3ccc(O)cc3)n2)CCc2ccccc21 (stereo unspecified),4.6%,0%,11%,-2
Cc1ccc(CS(=O)(=O)CC(C)(O)c2ccc(Cl)cc2)cc1 (stereo unspecified),-0.2%,-5%,-1%,/
Cc1ccc(S(=O)(=O)NCCc2cc3ccc(C)cc3[nH]c2=O)cc1,-0.3%,-3%,5%,/
CCc1nnc(NC(=O)CCC(=O)NC2CCCCCCC2)s1,2.9%,5%,-2%,/
O=C(N/N=C/c1ccc(F)cc1)c1cc(-c2ccco2)nc2ccccc12,-5.4%,-3%,0%,5
CN(C)c1cccc2c(S(=O)(=O)Nc3ccccn3)cccc12,0.3%,14%,-6%,8
Cc1ccc(S(=O)(=O)N2CCCCC2C(=O)NCc2ccco2)cc1 (stereo unspecified),-3.8%,1%,0%,-3
COc1cccc(-n2nnc3c(=O)n(CC(=O)N4CCC(Cc5ccccc5)CC4)cnc32)c1,-2.3%,0%,8%,2
Cc1ccc(S(C)(=O)=O)cc1C(=O)OCC(=O)N1CCCC1=O,2.5%,-8%,/,/

# Sorted by molecular weight (highest first): part of the list above.
SMILES,Rango-impB inh,Rango release inh,miR-21 FLuc,GLA inh pH 4.5
Cc1ccc(NC(=O)CCC(=O)OC(C(=O)c2ccc(C)c(C)c2)c2ccccc2)c(C)c1 (stereo unspecified),-4.3%,1%,-9%,-20
CCOc1ccc(-c2nnc3ccc(SCC(=O)Nc4cc(C)on4)nn23)cc1,-3.0%,1%,-3%,1
CC(O)[C@H]1CNC(=O)C(=O)N1CCc1cc(C(F)(F)F)cc(C(F)(F)F)c1 (stereo partly specified),4.2%,-8%,-1%,0
Cc1ccc(S(=O)(=O)N2CCN(c3ncnc4sccc34)CC2)cc1,3.0%,-13%,16%,/
CCOC1OC(=O)C(Cl)=C1Nc1cc(C)ccc1C (stereo unspecified),-1.8%,22%,-7%,3
Cc1ccc(NC(=O)c2ccc3c(c2)OCCO3)nc1,-5.7%,4%,/,/

# Screening data as filed in PubChem BioAssay.

# The list is partial (hit frequency here may not be typical).
